TRPV1 potentiator = human TRPV1 potentiation; TRPV1-expressing cells, Fluo-8 calcium influx, capsaicin EC20 potentiation; host cell line not named in the record; control for the full effect not named in the record; potentiation, % at 8.33 µM; 320,000 compounds, 0.02% hits; active means potentiation above 80%; inconclusive means 30% to 80%; inactive means below 30%; further: 0% is about no effect
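Cells expressing TRPV1 were dye-loaded with Fluo-8 and read kinetically: 10 s baseline, 3 min after compound (agonist portion), then 2 min after EC20 capsaicin (allosteric enhancer portion). Calcium-bound dye fluorescence at 480/520 nm.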
gsp antag = antagonists of gsp mutant (McCune-Albright syndrome); 340,000 compounds, 0.4% hits; Potency, µM (titrated, usually from 76.9 µM), inactives show at the highest dose activity change, negative = inhibition, hits mostly inhibitors; gsp-mutant cells, cAMP HTRF, 30 min; control for the full effect not named in the record; active = falling curve of any shape with a large fitted effect; inconclusive = falling curve, mostly with a smaller effect; inactive = flat or rising curve; cell line not stated here;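 further: intracellular cAMP measured with PDE inhibitor Ro 20-1724 present during compound exposure; potency means the concentration at half of the fitted maximal effect; on the % scale 0 is the no-effect control and ±100 the full control effect; nearly all actives have a fitted effect of over 65% in size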
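Cells in G418 medium, seeded 16-24 h, 37C; buffer exchange to DPBS + 1 mM CaCl2, 0.5 mM MgCl2, 0.05% BSA; cpds in DMSO + […] (300 uM stock), 30 min 37C; HTRF cAMP detection.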
ClpP mod = qHTS Assay for Activators of ClpP; ATP-dependent Clp protease proteolytic subunit (Bacillus subtilis (strain 168)), P80244; purified B. subtilis ClpP, FRET peptide cleavage, 20 min; Potency, µM (series often up to 57.5 µM), for inactives: at the top dose activity change, negative = active; 340,000 compounds, 1.9% hits; active = well fitted falling curve with a large enough effect; inconclusive = small, poorly fitted or top-dose-only effect; inactive = no such curve, though single readings can be large or run the other way; further: potency means the concentration at half of the fitted maximal effect; the source files actives as falling curves though it sought activators and does not explain the sign; nearly all actives have a fitted effect of over 65% in size; many hits overshoot -100%
Target sequence (P80244 whole entry, looked up): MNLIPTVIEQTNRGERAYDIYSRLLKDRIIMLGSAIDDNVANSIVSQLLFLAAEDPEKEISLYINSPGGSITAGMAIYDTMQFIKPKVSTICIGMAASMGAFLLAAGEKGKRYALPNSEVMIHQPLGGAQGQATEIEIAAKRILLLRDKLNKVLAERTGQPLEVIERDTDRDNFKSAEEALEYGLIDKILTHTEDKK
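FRET quenching reversal measured ClpP activation: 10 microg/mL B. subtilis ClpP at pH 8 with the FRET-FV decapeptide, read at 430 nm after 320 nm excitation. The 20-min minus 0-min signal was scaled between DMSO/no-enzyme wells and ADEP (5.8 microM final).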
D2 PAM = human D2 receptor positive allosteric modulation; DiscoveRx D2 beta-arrestin cells, luminescence, 90 min; 100% = 57 uM dopamine signal; 360,000 compounds, 0.23% hits; potentiation, % (test concentration not listed); active = potentiation of 50% or more; inconclusive = 30% to 50%; inactive = 30% or less;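 further: compound concentration not given in the record; tested on top of an EC20 dose of dopamine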
Target sequence (P14416 whole entry, looked up): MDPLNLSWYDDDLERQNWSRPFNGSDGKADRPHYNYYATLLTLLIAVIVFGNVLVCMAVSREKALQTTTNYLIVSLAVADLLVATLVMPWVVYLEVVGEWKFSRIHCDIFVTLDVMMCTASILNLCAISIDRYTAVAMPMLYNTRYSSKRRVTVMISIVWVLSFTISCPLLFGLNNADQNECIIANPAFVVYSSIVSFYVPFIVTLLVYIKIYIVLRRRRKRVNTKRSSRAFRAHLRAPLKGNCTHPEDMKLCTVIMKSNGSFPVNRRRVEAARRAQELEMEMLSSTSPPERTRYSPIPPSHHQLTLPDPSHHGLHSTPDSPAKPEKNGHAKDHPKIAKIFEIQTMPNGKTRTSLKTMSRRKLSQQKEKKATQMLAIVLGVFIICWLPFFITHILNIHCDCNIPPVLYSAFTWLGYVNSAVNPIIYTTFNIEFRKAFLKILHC
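PathHunter D2 cells, attached overnight at 37 deg C, received compound in DMSO plus dopamine at EC20 (50 nM final) for 90 min at 37 deg C. Beta-arrestin recruitment was read as luminescence after 1 h with detection reagent at ambient temperature.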
gsp agonist = gsp mutant agonism; gsp mutant cells, cAMP HTRF, 30 min; control for the full effect not named in the record; Potency, µM (top dose mostly 76.9 µM), without a hit: at the highest dose activation (cAMP increase), usual class: activators; 340,000 compounds, 0.13% hits; AID 624287; active = well fitted activation curve with a large enough effect; inconclusive = small, poorly fitted or top-dose-only effect, or another doubt; inactive = no such curve, though single readings can be large or run the other way; cell line not stated here;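 further: phosphodiesterase inhibitor Ro 20-1724 added with compounds to block cAMP breakdown; potency means the concentration at half of the fitted maximal effect; nearly all actives have a fitted effect of over 60% in size; about a fifth of the inactives were tested at one dose only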
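Cells stably selected in G418 were plated at 2000/well, grown 16-24 hr, then given compounds in DMSO with the PDE inhibitor […] (300 uM solution added) for 30 min at 37C; cAMP was read by HTRF.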
Sfp inh = blocks B. subtilis Sfp PPTase activity; Q9F4F7; Biochemical Sfp PPTase activity, qHTS; Potency, µM, for the others: max response, negative = inhibition, most hits filed as inhibitors; 310,000 compounds, 3.5% hits; active means well fitted inhibition curve with a large enough effect; inconclusive means small, poorly fitted or top-dose-only effect, or another doubt; inactive means no such curve, though single readings can be large or run the other way;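 further: the enzyme is Sfp with the accession as filed and its product quenches rhodamine fluorescence; potency means the concentration at half of the fitted maximal effect; 0% = enzyme reaction without inhibitor and -100% = no enzyme wells; top concentration of the series not given in the record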
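With Hepes-Na pH 7.6 buffer containing 10 mM MgCl2, Sfp (15 nM) modified BHQ-2-YbbR (12.5 uM) using rhodamine-CoA (5 uM). Two reads 30 minutes apart at 525/598 nm yielded each well's rate.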
Menin-MLL FL inh = menin-MLL binding inhibition, fluorescein peptide; Fluorescence polarization, fluorescein-MLL peptide displacement from menin; FP activity change, % at 61.4 µM; 290,000 tested, under 10 active; AID 1766; inconclusive = falling polarisation curve, or a change in total fluorescence; inactive = total fluorescence flat and polarisation flat or rising; no compound was filed as active; the % refers to the polarisation; negative = inhibition;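 further: % of control where 0% means no effect; inhibitors lower the polarisation; unlabelled MLL peptide was the positive control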
* marks the source's active call; other numbers are inactive results; ? = inconclusive; . = not tested or not shown; & = joins results of further samples; [ ] = dose if it differs, or a comment.

SMILES	TRPV1 potentiator	gsp antag	ClpP mod	D2 PAM	gsp agonist	Sfp inh	Menin-MLL FL inh
CCC(=O)OCCNc1cc(SCCC(=O)OC)c2nonc2c1[N+](=O)[O-]	0	0%	0.6%&1.3%	-28	?	-25%	-2.8
Cc1ccc2c(COC(=O)c3cnc(C)cn3)cc(=O)oc2c1	-5	.	.	.	.	4%	2.7
CCn1nc(C(=O)OCC(=O)c2c[nH]c3ccccc23)c2ccccc2c1=O	-7	7%	-1.3%	-3	-10%	-9%	3.1
O=C(NCCc1ccc(F)cc1)c1ccc(S(=O)(=O)N2CCCCC2)cc1	-2	14%	-1.0%	13	-33%[inhibitor]	.	.
Nc1cc(=O)[nH]c(SCCNS(=O)(=O)c2ccccc2)n1	-6	1%	-1.0%	7	5%	-5%	-1.4
S=c1[nH]nc(-c2cc(-c3ccco3)[nH]n2)n1-c1ccccc1	7	-4%	-8.1%	4	?	89µM*	3.3
Cc1ccc[n+](CC2OCc3ccccc3CO2)c1	-5	?	.	-5	10%[15.4 µM]	11%	-3.8
O=C(COC(=O)c1cccs1)c1ccc2c(c1)OCCO2	-5	-2%	-0.5%	2	-57%[inhibitor]	-4%	2.3
O=C(CCC(=O)N1CCSc2ccccc21)NCCc1ccccc1	2	0%	-0.8%	-7	18%	14%	-2.3
COCC(=O)N1CCC(n2nnc3cc(C(F)(F)F)ccc32)CC1	-14	0%	0.4%	-8	2%	12%	0.5
O=C(NC1CCCCCC1)c1ccc(CS(=O)Cc2ccccc2Cl)o1 (stereo not given)	5	-7%	-1.6%	-11	2%	1%	1.2
CCN(c1ccccc1)S(=O)(=O)c1ccc(C(=O)N(CCN(C)C)c2nc3c(F)cc(F)cc3s2)cc1	-18	.	.	.	.	3%	-1.2
CCN(CC(=O)Nc1ccc(S(=O)(=O)N2CCCC2)cc1)CC(=O)Nc1cccc(OC)c1	-15	-2%	.	-5	-6%	79µM*	-2.3
O=C(O)c1cc2c(N3CCC(Cc4ccccc4)CC3)ncnc2s1	8	?	.	0	35%[15.4 µM]	7%	0.0
Cc1ccc(S(=O)(=O)c2c(N)n(CC3CCOC3)c3nc4ccccc4nc23)cc1 (stereo not given)	-17	-7%	13µM*	-12	-51%[inhibitor]	5%	1.8
O=C1CC(N2CCCN(C3CC(=O)N(c4ccc(F)cc4)C3=O)CC2)C(=O)N1c1ccc(F)cc1 (stereo not given)	-1	1%	-23%	-3	-16%	1%	1.6
CC(C)C[C@H](NC(=O)c1nc[nH]c1C(=O)N1CCN(c2ccccc2)CC1)C(=O)OCc1ccccc1	?	-14%	-1.9%	-7	.	10%	4.0
Cc1c(C(=O)c2ccc(F)cc2)c2ccccn2c1CCc1ccccn1	-7	?	.	-6	?	-27%	?
O=S(=O)(O)CCN1CCOCC1	-2	-2%[15.4 µM]	0.3%	-10	?	13%	1.3
COc1ccc(CN(C)C(=O)CSc2nnc(C3CC3)n2C2CC2)cc1	-14	3%	-2.5%	21	8%	.	.
O=C1NN=C(c2ccccc2)CC1c1ccc(Cl)cc1Cl (stereo not given)	8	-9%	.	7	-19%	4%	2.8
O=C(O)CCCNC(=O)/C(=C\c1ccccc1F)NC(=O)c1ccccc1	6	5%	.	-6	-11%	17%	-5.1
CCOc1ccc(-n2c(SCC(=O)OC)nc3sc4c(c3c2=O)CCN(C)C4)cc1	21	-9%	-21%	-7	?	-1%	6.9
COc1ccccc1NS(=O)(=O)c1ccc(C(=O)NCC(c2ccco2)N(C)C)cc1 (stereo not given)	5	-2%	-2.1%	-3	3%	.	.
COC(=O)C1CCN(C(=O)COC(=O)c2cc([N+](=O)[O-])ccc2N2CCOCC2)CC1	-4	1%	-0.5%	7	-22%	.	.
(cont.)
SMILES	TRPV1 potentiator	gsp antag	ClpP mod	D2 PAM	gsp agonist	Sfp inh	Menin-MLL FL inh
O=C(O)c1cc([N+](=O)[O-])ccc1NCc1ccccc1	16	-14%	-3.0%	1	24%[15.4 µM]	21%	-2.9
COc1ccc(OCC(=O)Nc2ccc3c(c2)nc(CCN2CCC(C)CC2)n3C)cc1	-9	15%	-3.9%	-31	3%	20%	.
Cc1ccnc(Sc2ccc([N+](=O)[O-])cc2[N+](=O)[O-])n1	1	11%	0.7%	22	1%	7%	-7.1
O=C(c1ccccc1)c1c[nH]c(C(=O)NCc2cccnc2)c1	5	?	0.2%	-5	-2%	14%	1.7
COc1ccc(C)cc1S(=O)(=O)N1CCN(c2cccc(C(F)(F)F)c2)CC1	13	-1%	-3.3%	3	3%	23%	-2.3
CC(C)CCn1c(N)c(S(=O)(=O)c2cccs2)c2nc3ccccc3nc21	5	-22%	?	-5	-6%	19%	3.1
CCCN(CC(=O)Nc1ccccc1C)C(=O)c1ccc(N2CCCCC2)c([N+](=O)[O-])c1	-7	-6%	1.0%	-5	2%	.	.
CCOC(=O)C1=C(c2ccccc2)NC(SCC(=O)NC2CCCCC2)=C(C#N)C1c1ccco1 (stereo not given)	-1	31%[activator]	-0.8%	-2	-2%	10%	-0.9
Cc1ccc(S(=O)(=O)N2C[C@H]3N(C(=O)OC(C)C)N(C(=O)OC(C)C)C[C@H](OC(=O)NCc4ccco4)[C@@]3(O)C2)cc1	.	.	0.5%	2	-66%[inhibitor]	.	.
COc1ccc(CNC(=O)CN(C)S(=O)(=O)c2ccccc2)cc1	1	1%	.	-3	5%	22%	1.8
CNC(=S)Nc1ccc([N+](=O)[O-])cc1C	-1	2%	.	-3	13%	-19%	-0.3
COc1cccc(NC(=O)[C@@H]2CCC(=O)N2C2OC(=O)c3ccccc32)c1 (stereo not given in full)	5	6%	0.1%	-18	.	14%	-1.5
Cc1nn(C2CCS(=O)(=O)C2)c2nc(C3CC3)cc(C(=O)Nc3ccc(C(N)=O)cc3)c12 (stereo not given)	4	6%	-30%	12	-68%[inhibitor]	.	.
O=C(O)COc1cccc(NC(=O)C2CCCO2)c1 (stereo not given)	21	0%	-0.8%	-16	26%	18%	1.0
CN1CCN(NC(=O)COc2cccc(C(F)(F)F)c2)CC1	1	12%	-1.3%	-5	1%	8%	-2.5
Cc1ccccc1C(=O)N1CCC(C(=O)NC2CCCC2)CC1	2	7%	.	-6	-9%	10%	3.6
CNC(=O)c1c(C)[nH]c(=S)c(C#N)c1-c1ccco1	-5	-8%	-2.8%	-9	6%	8.9µM*	?
O=C(O)c1coc2ccccc12	?	3%	-2.3%	-4	9%	20%	0.1
O=C(CCCC(=O)N1CCc2ccccc21)N1CCc2ccccc21	-1	15%	-1.3%	-1	14%	9%	?
CCOC(=O)c1cc(-c2ccc(C)cc2)n(CCC(=O)N2CCN(c3ccccn3)CC2)c1C	7	-21%	-23%	3	1%	-4%	4.6
CCOC(=O)CNC(=O)c1c2c(nc3ccccc13)CCCC2	6	9%	-4.4%	3	2%	11%	0.7
O=C(N/N=C/c1ccnc2ccccc12)c1ccccc1O	0	-10%	-1.1%	-13	4%[15.4 µM]	4%	-0.4
C=C(C)C(=O)OCC(O)COc1ccc(C(C)(C)c2ccc(OCC(O)COC(=O)C(=C)C)cc2)cc1 (stereo not given)	-6	3%	1.1%	0	.	.	.
O=C(c1cc(-c2ccncc2)nc2ccccc12)N1CCCC(C(F)(F)F)C1 (stereo not given)	.	.	-2.4%	-9	-45%[inhibitor]	.	.
Cc1ccc(C(=O)Nc2ccc(C(=O)O)cc2)cc1S(=O)(=O)NCc1ccccc1	1	5%	.	-1	15%[15.4 µM]	9%	-4.7

Three compounds drawn at random from those above:
SMILES	TRPV1 potentiator	gsp antag	ClpP mod	D2 PAM	gsp agonist	Sfp inh	Menin-MLL FL inh
O=C(O)c1cc([N+](=O)[O-])ccc1NCc1ccccc1	16	-14%	-3.0%	1	24%[15.4 µM]	21%	-2.9
COCC(=O)N1CCC(n2nnc3cc(C(F)(F)F)ccc32)CC1	-14	0%	0.4%	-8	2%	12%	0.5
CCN(c1ccccc1)S(=O)(=O)c1ccc(C(=O)N(CCN(C)C)c2nc3c(F)cc(F)cc3s2)cc1	-18	.	.	.	.	3%	-1.2

Next part:
SMILES	TRPV1 potentiator	gsp antag	ClpP mod	D2 PAM	gsp agonist	Sfp inh	Menin-MLL FL inh
S=C1NCN(Cc2cccnc2)CN1	8	1%	-3.6%	-8	2%[15.4 µM]	5%	5.8
CCCCCC(=O)N1C[C@H](n2cc(-c3ccc(F)cc3)nn2)[C@@H](O)C[C@@H]1c1ccc(OC)cc1	.	.	0.4%	3	-69%[inhibitor]	.	.
CCCCN(Cc1ccccc1)C(=O)c1cnc2n(c1=O)CCS2	-5	12%	-1.3%	-2	9%	0%	3.1
O=C(NNC(=O)c1ccccc1-n1cccc1)c1cccc(Cl)c1	5	12%	1.0%	-18	15%	17%	4.6
CCc1ccc(OCC(=O)N2CCN(c3ccccn3)CC2)c(Br)c1	?	-17%	?	-9	?	14%	.
Cc1cc(C)n(C(=O)c2ccc(S(=O)(=O)N3CCOCC3)cc2)n1	2	2%	0.0%	-12	2%	17%	-0.9
Cc1cc(C)nc(NS(=O)(=O)c2ccc(N3C(=O)C4C5C=CC(C5)C4C3=O)cc2)n1 (stereo not given)	2	7%	-5.5%	3	?	1%	4.0
CC(C)(C)c1csc(NNC(=O)c2ccc(Br)cc2)n1	-20	-14%	.	8	8%[15.4 µM]	-20%	0.9
CC(C)COc1nc2ccccc2nc1C(C#N)C(=O)NC1CCCCC1 (stereo not given)	12	1%	12%	-10	-2%	-7%	?
Cc1onc(-c2ccccc2)c1C(=O)N/N=C/c1cc(Br)c(Br)o1	3	?	-9.1%	-14	-31%[inhibitor]	-8%	1.8
COc1ccc(S(=O)(=O)NC(C)C(=O)Nc2cccc([N+](=O)[O-])c2)cc1 (stereo not given)	-5	12%	-1.3%	-4	-41%[inhibitor]	-24%	-0.9
COc1ccc(-c2nc(-c3ccccc3)[nH]c(=O)c2C#N)cc1	-14	-21%	-8.2%	3	-34%[inhibitor]	12%	-1.6
COc1cc2c(cc1OC)C(c1cccs1)NCC2 (stereo not given)	10	8%	0.5%	-14	-6%	5%	4.4
Cc1cc(C)cc(C(=O)N(CCc2ccccc2)C2CC3CCC(C2)N3C)c1 (stereo not given)	-8	-13%	.	-26	7%	6%	-3.9
COc1cc(C(=O)N(Cc2cc3ccccc3[nH]c2=O)CC2CCCO2)cc(OC)c1OC (stereo not given)	6	-2%	-18%	-3	2%	18%	-1.1

Screening results deposited in PubChem by National Center for Advancing Translational Sciences (NCATS).
